# Compound activity: PubChem, National Center for Advancing Translational Sciences (NCATS)
# VDR inhibitor = Inhibitors of the vitamin D receptor (VDR): qHTS. VDR-SRC2-3 peptide fluorescence polarization, 2 h. Vitamin D3 receptor (Homo sapiens), P11473. 400,000 tested, 0.93% active. AID 504847, 2011. Potency, µM, for inactives: max response, negative = inhibition, most hits filed as inhibitors; active = well fitted inhibition curve with a large enough effect; inconclusive = small, poorly fitted or top-dose-only effect, or another doubt; inactive = no such curve, though single readings can be large or run the other way; also: series mostly up to about 120 µM
# Target sequence (P11473 whole entry, looked up): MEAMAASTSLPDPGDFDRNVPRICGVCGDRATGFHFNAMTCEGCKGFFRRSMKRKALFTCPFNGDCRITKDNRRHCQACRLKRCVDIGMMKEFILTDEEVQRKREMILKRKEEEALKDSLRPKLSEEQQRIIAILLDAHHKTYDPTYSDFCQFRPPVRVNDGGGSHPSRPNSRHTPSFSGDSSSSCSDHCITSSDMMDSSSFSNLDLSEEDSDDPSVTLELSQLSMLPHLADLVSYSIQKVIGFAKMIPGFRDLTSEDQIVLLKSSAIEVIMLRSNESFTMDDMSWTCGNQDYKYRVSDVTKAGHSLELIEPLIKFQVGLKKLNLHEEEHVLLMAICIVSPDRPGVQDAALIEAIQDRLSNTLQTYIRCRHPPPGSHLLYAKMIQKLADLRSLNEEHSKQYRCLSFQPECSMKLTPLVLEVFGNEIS
#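 Inhibition of the VDR/SRC2-3 peptide interaction is quantified by fluorescence polarization. Compounds (23 nl, pintool) incubate with the reagents for 2 hours at ambient room temperature.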
# Numbers without * were called inactive; u = inconclusive; & = joins results of further samples; [ ] = dose if it differs, or a comment. % is scaled to controls: 0 for no effect and ±100 for the full control effect; potency is read from the fitted curve at half-maximal effect.
SMILES,VDR inhibitor
CCN(CC)C(=O)c1oc2ccc(S(=O)(=O)N3CC(C)CC(C)C3)cc2c1C (centres undefined),-0.9%
O=P(O)(O)c1ccccc1OCc1ccccc1,-11.4%
CC(C)CCOC(=O)C1C2C=CC3(CN(Cc4cccs4)C(=O)C13)O2 (centres undefined),0.8%
CC(Cc1cccs1)NC(=O)Nc1ccc(Cl)cc1 (centres undefined),10.7%
O=c1c([N+](=O)[O-])c(N2CCCC2)c2ccccc2n1-c1ccccc1,7.2%
Oc1ccccc1-c1nc(NCc2ccccc2)c2ccccc2n1,9.0%
O=C(CN1C(=O)c2ccccc2C1=O)NCc1ccc(C(=O)O)cc1,-7.8%
Cc1sc(NC(=O)c2ccccc2)c(C(=O)NCCN(C)C)c1C,19.1%
O=C(Cc1ccon1)c1ccc(O)cc1O,13.5%
CCN1CCCC1CNC(=O)c1c(O)c2c([nH]c1=O)CCCC2 (centres undefined),6.8%
Cc1ccc(NC(=O)CSc2nnc(CNC(=O)c3ccco3)n2C)cc1,-16.2%
COc1ccccc1-c1nc(S(=O)(=O)c2ccc(Cl)cc2)c(N2CCCCCC2)o1,6.1%
Cc1ccc(CCNC(=O)c2cc(Nc3ccc(C)c(C)c3)nc3ccccc23)cc1,15.9%
Cc1[nH]c2ccccc2c1SCC(=O)N1CCCc2ccccc21,-17.1%
N#Cc1cnc(Nc2nc3ccccc3o2)nc1-c1ccccc1,24.8%
COC(=O)/C=C/C(C)=C/C=C/C(C)=C/C=C/C=C(C)/C=C/C=C(C)/C=C/C(=O)O,89.1µM*
COc1ccc(CNC(=O)Nc2cccc(Cl)c2)cc1,-13.3%
COc1cccc(CN(C)C(=O)c2ccc3c(=O)n4c(nc3c2)CCC4)c1,-7.3%
Cc1ccccc1NC(=O)c1c(NC(=O)c2ccco2)sc2c1CCC(C(C)(C)C)C2 (centres undefined),-23.3%
CCC(C)Nc1nc(N)c([N+](=O)[O-])c(N2CCCCCC2)n1 (centres undefined),-20.4%

# 5 entries from above, sorted by count of non-hydrogen atoms, ascending.
SMILES,VDR inhibitor
O=C(Cc1ccon1)c1ccc(O)cc1O,13.5%
COc1ccc(CNC(=O)Nc2cccc(Cl)c2)cc1,-13.3%
N#Cc1cnc(Nc2nc3ccccc3o2)nc1-c1ccccc1,24.8%
CC(C)CCOC(=O)C1C2C=CC3(CN(Cc4cccs4)C(=O)C13)O2 (centres undefined),0.8%
Cc1ccccc1NC(=O)c1c(NC(=O)c2ccco2)sc2c1CCC(C(C)(C)C)C2 (centres undefined),-23.3%

# (list continues)
SMILES,VDR inhibitor
COc1ccc(S(=O)(=O)Nc2cc(-c3cn4cccc(C)c4n3)ccc2C)cc1C,1.8%
CC1CCc2c(sc3nnn(Cc4ccccc4Cl)c(=O)c23)C1 (centres undefined),-6.1%
CC(C)CC1OC(=O)C2=CCCCC21 (centres undefined),2.8%
Cc1c(C(=O)N2CCC2)oc2ccc(Cl)cc12,-1.3%
Cc1cc(C)n(-c2nc3c(c(=O)[nH]c(=O)n3C)n2CC(O)COc2ccccc2)n1 (centres undefined),1.5%
CC(C)Cn1c(SCC(=O)Nc2cccc(S(N)(=O)=O)c2)nc2ccccc2c1=O,-3.6%
CCN1CCN(C(=O)C2CCN(S(=O)(=O)c3ccc(SC)cc3)CC2)CC1,-11.4%
CCOC(=O)C1(CCOc2ccccc2)CCN(S(=O)(=O)N(C)C)CC1,5.4%
Cc1ccc(NC(=O)Nc2ccc3c(c2)N(C)C(=O)c2ccccc2S3)c(C)c1,1.4%
O=C(Oc1ccccc1)c1cc2ccccc2oc1=O,-4.5%
COc1ccc(N2C(=O)C3CCCN3C2c2cc(OC)c(OC)cc2OC)cc1 (centres undefined),-2.2%
Cc1nn2c(=S)[nH]nc2[nH]c1=O,0.0%
CC(=O)N1CCN(c2ccc(NC(=O)c3ccc(Cl)c([N+](=O)[O-])c3)cc2)CC1,4.9%
O=C(CSc1nc(NS(=O)(=O)c2ccccc2)cc(=O)[nH]1)Nc1cccc(C(F)(F)F)c1,-14.8%
CCOC(=O)c1c(N)n(-c2ccc(CC)cc2)c2nc3ccccc3nc12,-9.9%
O=C(NCc1ccc2c(c1)OCO2)c1ccc(S(=O)(=O)N2CCCCC2)cc1,4.8%
Cc1ccc(C(=O)C(OC(=O)CN2C(=O)c3ccccc3C2=O)c2ccccc2)cc1 (centres undefined),4.6%
O=C(CS(=O)c1ccccc1[N+](=O)[O-])Oc1ccc(Br)cc1 (centres undefined),u
CC(C)c1nnc(NC(=O)CCC(=O)N2CCN(Cc3ccccc3)CC2)s1,1.2%
CCc1ccc2[nH]c(=O)c(C(c3nnnn3CC3CCCO3)N3CCN4CCCC4C3)cc2c1 (centres undefined),-0.7%

# Next section; the last three above are carried over.
SMILES,VDR inhibitor
O=C(CS(=O)c1ccccc1[N+](=O)[O-])Oc1ccc(Br)cc1 (centres undefined),u
CC(C)c1nnc(NC(=O)CCC(=O)N2CCN(Cc3ccccc3)CC2)s1,1.2%
CCc1ccc2[nH]c(=O)c(C(c3nnnn3CC3CCCO3)N3CCN4CCCC4C3)cc2c1 (centres undefined),-0.7%
O=CNCCCc1nc2ccccc2n1Cc1ccccc1,12.4%
Cc1ccc(C)c(-n2c(SCC(=O)O)nc3sc4c(c3c2=O)CCCC4)c1,5.2%
COc1cccc(C(=O)N(C)CC2CCN(CCc3cccc(C(F)(F)F)c3)CC2)c1,-11.3%
CC(=O)N1c2ccc(S(=O)(=O)N3CCCCC3)cc2CC1C(=O)Nc1ccccc1C(F)(F)F (centres undefined),3.1%
CCOC(=O)[C@H]1[C@H]2COc3ccc(Br)cc3[C@@H]2N2C(=O)CN(Cc3ccco3)C(=O)[C@@]12C,-14.9%
Cc1nc(C)n(C(=O)N(c2ccccc2)c2ccccc2)n1,-1.2%
Cc1c(N(C)C)c(=O)n(-c2ccccc2)n1C,8.3%&-9.6%&16.6%
Cc1cccc(NC(=O)C2CCC(CNC(=O)[C@@H]3Cc4ccccc4CN3)CC2)c1 (some centres undefined),-12.5%
O=C(OCc1c(-c2ccccc2)ncc2ccccc12)c1cccs1,-5.0%
Cc1cc(NC(=O)CCC(=O)N(c2cccnc2)C(C(=O)NC2CCCC2)c2ccccc2)no1 (centres undefined),11.6%
COc1ccccc1N1CCN(C(CNC(=O)c2ccco2)c2cccnc2)CC1 (centres undefined),-9.0%
COc1ccc(CCNC(=O)COC(=O)c2cnc(C)cn2)cc1,-7.0%
CC(=O)Nc1ccc2c(c1)[nH]c(=O)c1ccccc12,-8.9%
S=C(NCCc1ccccc1)NCc1ccccc1Cl,-7.3%
COc1ccccc1CCC(=O)Nc1ccc(C)cc1Cl,-3.8%
CCC(=O)NC(=S)Nc1ccc(NC(=O)COc2ccc([N+](=O)[O-])cc2)cc1,5.0%
COc1ccccc1CNC(=O)CCCNC(=O)c1ccc(Cl)cc1,5.5%
CC(C)(C#N)Cc1cc(CC(C)(C)C#N)cc(C(C)(C)C)c1,-7.1%
Cc1ccccc1CN1C(=O)c2ccccc2S(=O)c2ccc(C(=O)NCc3ccc(Cl)cc3)cc21 (centres undefined),11.1%
O=C(c1cccc(S(=O)(=O)Nc2ccccc2F)c1)N1CCN(c2ccccc2F)CC1,-16.2%

# Quoted at random: two compounds from above.
SMILES,VDR inhibitor
Cc1ccccc1CN1C(=O)c2ccccc2S(=O)c2ccc(C(=O)NCc3ccc(Cl)cc3)cc21 (centres undefined),11.1%
COc1ccc(CCNC(=O)COC(=O)c2cnc(C)cn2)cc1,-7.0%

# (continued)
SMILES,VDR inhibitor
Cn1cccc1CC(=O)NNC(=O)Nc1cccc(Cl)c1,-10.9%
COc1ccc(C(=O)NCN2CCN(c3ccccc3)CC2)cc1OC,-3.5%
Cc1ccnc(NC(=O)c2ccc(Cl)c(NC(=O)C(C)Oc3ccccc3)c2)c1 (centres undefined),9.0%
O=C(C1=C[C@@H]2[C@H]3C(=O)N(c4cccc(Cl)c4)C(=O)[C@H]3[C@@H](C(=O)c3ccc(Cl)cc3)N2C=C1)c1ccccc1,31.5%[activator]
O=C(O)c1ccccc1OCC1CCCO1 (centres undefined),-15.9%
CN(Cc1ccccc1)C(=O)c1ccc2c(c1)N(Cc1ccccc1F)C(=O)c1ccccc1S2(=O)=O,-3.7%
CCC1CCc2sc(C(=O)NCc3ccccn3)cc2C1 (centres undefined),7.1%
CCN(CC)C(=O)C[n+]1ccc(C(N)=O)cc1,-9.0%
CC(=O)O[C@@H]1C[C@H]2C(C)(C)C(=O)C=C[C@]2(C)[C@H]2CC[C@@]3(C)[C@H](c4ccoc4)OC(=O)[C@H]4O[C@]43[C@@]21C,-26.5%
CCCCN(CC)Cc1c(C)[nH]c2ccccc2c1=O,9.3%
NNC(=O)c1ccc(CN2CCCCC2)o1,-1.4%
CC1CCCC(NCC(=O)Nc2ccc(C(N)=O)cc2)C1C (centres undefined),-3.9%
S=C(Nc1ccc(Br)cc1Cl)NC1CCN(Cc2ccccc2)CC1,3.5%
Cc1cc([N+](=O)[O-])nn1CC(=O)Nc1sc2c(c1C(N)=O)CCCC2,3.0%
CC(=O)Nc1ccc(NC(=O)c2cc(-c3ccccc3)nc3ccccc23)cc1,-3.8%
O=c1[nH]c2ccccc2n1Cc1ccc(Cl)cc1,17.3%
COc1ccc2c(CNCC(C)c3ccccc3)c(C(=O)O)n(Cc3ccc(F)cc3Cl)c2c1 (centres undefined),-6.7%
COc1cc(OC)cc(C(=O)NNC(=O)c2ccc3c(c2)OCCO3)c1,-3.3%
O=S(=O)(NCC(c1cccnc1)N1CCN(c2ccc(F)cc2)CC1)c1ccccc1 (centres undefined),0.9%
COc1ccc2c3n(nc2c1)CCN=C3c1cc(Cl)c(N)c(Cl)c1,0.5%
O=C(N/N=C/c1ccccn1)c1ccc([N+](=O)[O-])cc1,2.9%
O=C(COC(=O)c1ccc[nH]c1=O)NC1CC1,0.4%
Cc1cc2c(cc1S(=O)(=O)N1CCOCC1)NC(=O)CO2,-14.0%
NC(=O)COc1ccc(Cc2ncc(C(F)(F)F)cc2Cl)cc1,-3.4%
O=C(CSC1=NS(=O)(=O)c2cc(Cl)ccc2N1)NCc1ccccc1,3.0%
CN(C)/N=C/c1ccc(Sc2ccccc2[N+](=O)[O-])o1,-18.3%
CC(=O)Oc1c(C)cc(Cl)cc1C(=O)Nc1ccc([N+](=O)[O-])cc1Cl,2.6%
CC(Oc1ccc(Cl)cc1Cl)C(=O)NCCC1=CCCCC1 (centres undefined),-12.2%
Cc1nc(NS(=O)(=O)c2ccccc2)sc1C(C)(C)C,-1.9%
COCCOc1ccc(C(F)(F)F)cc1NC(=O)c1ccc(C)cc1,0.3%
Cc1cccc(CN2CCN(c3ccccn3)CC2)c1,-14.5%
O=c1c(Cl)c(Cl)cnn1Cc1ccc(F)cc1,-3.7%
CC1CCN(S(=O)(=O)c2c[nH]c(=O)[nH]c2=O)CC1,0.3%
O=C(O)CC12CC3CC(C1)CC(n1ncc(N4CCC5(CC4)OCCO5)c(Cl)c1=O)(C3)C2,4.3%
O=C(NCCCc1ccccc1)c1ccccc1O,9.1%
Cc1ccccc1CS(=O)(=O)CCC(=O)O,6.8%
C/C(Cn1nc([N+](=O)[O-])cc1C)=N\NC(=O)COc1c(Cl)cc(Cl)cc1Cl,-7.1%
COc1ccc([N+](=O)[O-])cc1N(CC(=O)NCCCOC(C)C)S(C)(=O)=O,-3.2%
Cc1ccc(C2(C)NC(=O)N(CC(=O)Nc3ccc(S(=O)(=O)Nc4nccs4)cc3)C2=O)cc1 (centres undefined),-1.0%
C/C(=N\NC(=O)C1CC1)c1ccc(Cl)c(Cl)c1,3.5%
COc1ccc(Cl)cc1NC(=O)Cn1ccn(Cc2ccc(C)cc2)c(=O)c1=O,3.8%
O=C(CN1CCN(S(=O)(=O)c2ccc3c(c2)OCCO3)CC1)Nc1ccccc1Br,69.0%[activator]
O=C(NC1CCOc2ccccc21)C1CCCC1 (centres undefined),-2.6%
CCOC(=O)Cc1nc2ccccc2n(CC#N)c1=O,6.9%
CCOc1ccc(NC(=O)N2CCN(C(=O)c3nsc4ccccc34)CC2)cc1,2.6%
Cc1cc(C)n(CC(=O)NNC(=O)COc2ccc(F)cc2Br)n1,13.3%
COc1ccc(C(N)=O)c(OCC(=O)Nc2cc(C)on2)c1,-1.0%
CC(=O)Nc1ccc(/C=C(\C#N)C(=O)NCc2ccccc2)cc1,-12.3%
CCc1ccc(/C=N/N2CCN(c3ccccn3)CC2)cc1,-17.6%
COC(=O)C(C(=O)Nc1ncccn1)C1CCCCCC1 (centres undefined),-6.8%
Cc1ccccc1NC(=O)COC(=O)CC1CCCC1,-2.0%
O=C(NCCc1c[nH]c2ccccc12)C(=O)NCC1OCCCN1S(=O)(=O)c1ccccc1 (centres undefined),0.0%
Cc1cccc(N2CCN(C(=O)C3CCN(C(=O)c4cc5sccc5n4C)CC3)CC2C)c1 (centres undefined),2.4%
CCCC1(c2ccccc2)NC(=O)N(CC(=O)Nc2cc(OC)cc(OC)c2)C1=O (centres undefined),-0.4%
CC(C)(C)c1ccc(C(=O)NNC(=O)c2cccc(Br)c2)cc1,4.3%
CCCN1CCN(CCCNC(=O)c2ccc3c(c2)NC(=O)c2ccccc2S3)CC1,4.8%
COc1ccc(-c2n[nH]c(C)c2-c2cnn(-c3ccccc3)c2)c(O)c1C,-10.7%
CCOC(=O)N1CCN(C(=O)C2CCCN(S(=O)(=O)c3cccnc3)C2)CC1 (centres undefined),-20.6%
Cc1ccc(N(C(=O)CNC(=O)c2ccco2)C(C(=O)NC2CCCCC2)c2cccnc2)cc1F (centres undefined),-8.0%
Cn1c(SCC(=O)N2CCCc3ccccc32)ncc(C(=O)Nc2ccc(F)cc2)c1=O,5.1%
Cc1ccc(Cn2nc(C)c(NC(=O)c3nn(C)cc3Cl)c2C)cc1,18.2%
CCOc1ccc(S(=O)(=O)Nc2cccc(OC)c2)c2cccnc12,-8.4%
CCOC(=O)C1=C(C)Nc2nnnn2C1c1cccc(OC)c1OC (centres undefined),8.7%

# This is a subset, so the mix of outcomes need not match the whole.
